# Assay outcomes from PubChem.
# Vaccinia inh: blocks a specific stage of Vaccinia orthopoxvirus infection, primary screen, cell-based, single point | Vaccinia-infected cells, mCherry/Venus stage reporter fluorescence; hits give low values; some inactives read as strong as hits | activity change (mCherry), % (test concentration not listed) | 89,000 compounds, 0.01% hits;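 active = mCherry past -33% and 40 or more points under the early reporter, replicates agreeing; inconclusive = past -33% without that gap or agreement; tested in A549 cells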;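 note: scaled between vehicle wells and reference inhibitor wells; 23 nL library stock went into each well; one replicate is shown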
# Vaccinia inh Venus: also measured in Vaccinia inh; calls as there; activity change (Venus), %; measured here: Venus reporter, other viral stage;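 negative = less Venus signal; first of two replicates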
# Starred values were filed as active, the others as inactive; ? = inconclusive; . = not tested or not shown; & = joins results of further samples. The list is partial; the hit share may differ from the screen's.
# Start of the listing, in advance:
SMILES,Vaccinia inh,Vaccinia inh Venus
O=S(=O)(N[C@H]1CC[C@@H](CCn2cc(Cc3ccccc3)nn2)O[C@H]1CO)c1ccccc1F,6,8
C[C@@H]1CN([C@@H](C)CO)C(=O)c2cc(C#CC3CCCC3)cnc2O[C@@H]1CN(C)S(C)(=O)=O,-16,-15

# This part in full, previewed entries included:
SMILES,Vaccinia inh,Vaccinia inh Venus
O=S(=O)(N[C@H]1CC[C@@H](CCn2cc(Cc3ccccc3)nn2)O[C@H]1CO)c1ccccc1F,6,8
C[C@@H]1CN([C@@H](C)CO)C(=O)c2cc(C#CC3CCCC3)cnc2O[C@@H]1CN(C)S(C)(=O)=O,-16,-15
Cc1ccccc1S(=O)(=O)N1CC(=O)N2[C@H](CO)[C@H](c3ccc(C#CCC(C)C)cc3)[C@@H]2C1,-28,-24
C[C@@H]1CN([C@H](C)CO)C(=O)Cc2cc(NC(=O)Nc3ccc(C(F)(F)F)cc3)ccc2O[C@@H]1CN(C)C(=O)Nc1ccc2c(c1)OCO2,-4,0
C[C@@H]1CN([C@@H](C)CO)C(=O)c2cc(C3=CCCCC3)cnc2O[C@H]1CN(C)C(=O)c1ccc2c(c1)OCO2,-10,-13
COc1ccccc1CN1[C@@H]2CNC[C@H]1C2c1ccc(-c2ccc(C#N)cc2)cc1 (stereo partly specified),-5,-9
O=C(C[C@H]1CC[C@@H]2[C@H](COC[C@H](O)CN2C(=O)Nc2ccc3c(c2)OCO3)O1)N1CCN(c2ccccc2)CC1,-4,-13
C[C@@H]1CCCCO[C@@H](CN(C)Cc2ccc(C(F)(F)F)cc2)[C@H](C)CN([C@H](C)CO)C(=O)c2cc(NS(=O)(=O)c3ccc(F)cc3)ccc2O1,?,.
C[C@@H]1CN([C@@H](C)CO)C(=O)c2cc(NS(=O)(=O)c3ccc(F)cc3)ccc2O[C@H]1CN(C)C(=O)NC1CCCCC1,-5,-2
C[C@H]1CN([C@@H](C)CO)C(=O)c2cc(NC(=O)C3CCCCC3)ccc2O[C@H]1CN(C)Cc1ccc(C(F)(F)F)cc1,-27,-22
O=C(C[C@H]1CC[C@H]2[C@@H](COC[C@@H](O)CN2Cc2cccc(C(F)(F)F)c2)O1)NCc1ccncc1,-12,-5
COc1ccc(S(=O)(=O)Nc2cccc3c2O[C@H](CN(C)C(=O)Nc2ccc(F)cc2)[C@H](C)CN([C@H](C)CO)C3=O)cc1,0,-2
C[C@H](CO)N1C[C@H](C)[C@H](CN(C)Cc2ccc(Oc3ccccc3)cc2)OCc2cnnn2CCCC1=O,?,.
O=C(CC1CC1)N1CC2(C1)[C@H](c1ccccc1)[C@H](CO)N2C(=O)c1cnccn1,10,4
CCCC#Cc1ccc([C@H]2[C@@H](CO)N3C(=O)CN(C(=O)c4ccncc4)C[C@@H]23)cc1,39,21
CO[C@@H]1CN(C)C(=O)c2cc(NC(=O)C3CCOCC3)ccc2OC[C@@H](C)N(C)C[C@@H]1C,-7,-4
CCCC#Cc1ccc2c(c1)O[C@@H](CN(C)Cc1ccccn1)[C@H](C)CN([C@@H](C)CO)S2(=O)=O,?,.
O=C(N[C@H]1CC[C@@H](CCn2cc(C3(O)CCCC3)nn2)O[C@H]1CO)C1CCCCC1,5,4
O=C(C[C@@H]1C=C[C@@H](NC(=O)c2ccc(F)cc2)[C@H](CO)O1)NCCc1ccncc1,-2,-3
O=C(CN1CCOCC1)N1CCCCN2[C@@H](CO)[C@@H](c3ccc(/C=C/c4ccccc4)cc3)[C@@H]2C1,?,.

# 3 entries drawn at random from those above, as already listed:
SMILES,Vaccinia inh,Vaccinia inh Venus
C[C@@H]1CN([C@@H](C)CO)C(=O)c2cc(NS(=O)(=O)c3ccc(F)cc3)ccc2O[C@H]1CN(C)C(=O)NC1CCCCC1,-5,-2
CCCC#Cc1ccc([C@H]2[C@@H](CO)N3C(=O)CN(C(=O)c4ccncc4)C[C@@H]23)cc1,39,21
COc1ccc(S(=O)(=O)Nc2cccc3c2O[C@H](CN(C)C(=O)Nc2ccc(F)cc2)[C@H](C)CN([C@H](C)CO)C3=O)cc1,0,-2

# Later entries:
SMILES,Vaccinia inh,Vaccinia inh Venus
C[C@H]1CN([C@@H](C)CO)C(=O)c2cc(NC(=O)CCCCCC(=O)Nc3ccccc3N)ccc2O[C@H]1CN(C)Cc1ccc(Oc2ccccc2)cc1,-34,-26
O=C(C[C@@H]1C=C[C@@H](NS(=O)(=O)c2ccc(F)cc2)[C@H](CO)O1)NCc1ccncn1,6,7
C[C@H]1CN([C@@H](C)CO)C(=O)c2cccc(NC(=O)Nc3ccc(F)cc3)c2O[C@H]1CN(C)Cc1ccc(C(=O)Nc2ccccc2N)cc1,3,12
C[C@H]1CN([C@@H](C)CO)C(=O)c2cc(NC(=O)Nc3ccc(F)cc3)ccc2O[C@@H]1CN(C)Cc1ccc(Oc2ccccc2)cc1,4,0
O=S(=O)(c1ccccc1)N1CC2(C1)[C@H](c1ccccc1)[C@H](CO)N2CCC(F)(F)F,-8,-6
C[C@@H]1CN([C@H](C)CO)C(=O)Cc2cc(NS(=O)(=O)c3ccccc3)ccc2O[C@@H]1CN(C)Cc1ccc(-c2ccccc2)cc1,-25,-19
COc1ccc(S(=O)(=O)Nc2ccc3c(c2)C(=O)N([C@H](C)CO)C[C@@H](C)[C@@H](CN(C)Cc2ccncc2)OCCCC[C@H](C)O3)cc1,5,-15
CN1c2ccc(Br)cc2[C@@H]2[C@@H](CCN2C(=O)Cc2cccnc2)[C@@H]1CO,3,-2
C[C@H](CO)N1C[C@H](C)[C@H](CN(C)C(=O)Nc2cccc3ccccc23)Oc2ccc(NC(=O)Nc3ccccc3)cc2CC1=O,15,17
COCC#Cc1ccc2c(c1)O[C@H](CN(C)C(=O)NC(C)C)[C@@H](C)CN([C@@H](C)CO)S2(=O)=O,9,9
O=C(c1ccccc1F)N1CC[C@@H]2[C@H](CO)Nc3ccc(C#Cc4ccccc4F)cc3[C@@H]21,1,8
Cc1ccc(S(=O)(=O)N(C)C[C@H]2Oc3ccc(NC(=O)C4CCCCC4)cc3CC(=O)N([C@@H](C)CO)C[C@@H]2C)cc1,-8,-2
C[C@H](CO)N1C[C@H](C)[C@H](CN(C)Cc2ccc(C(F)(F)F)cc2)Oc2c(NC(=O)CCCCCC(=O)Nc3ccccc3N)cccc2C1=O,23,7
C[C@H](CO)N1C[C@H](C)[C@@H](CN(C)C(=O)Cc2ccncc2)Oc2ncc(C3=CCCC3)cc2C1=O,29,28
Cc1ccc(S(=O)(=O)Nc2ccc3c(c2)CC(=O)N([C@@H](C)CO)C[C@@H](C)[C@H](CN(C)CC2CC2)O3)cc1,-10,-1
COc1ccc(CN2[C@H](CO)[C@H]3c4ccccc4N(C(=O)NC(C)C)C[C@H]32)cc1,-6,-2
CCCN1C[C@H](C)[C@H](OC)CN(C)C(=O)c2ccc(NS(=O)(=O)c3cn(C)cn3)cc2OC[C@H]1C,12,13
CO[C@@H]1CN(C)C(=O)c2ccc(NC(=O)C3CC3)cc2OC[C@H](C)N(CCc2ccccc2)C[C@@H]1C,9,1
CC(C)NC(=O)N(C)C[C@H]1Oc2c(NC(=O)c3ccncc3)cccc2C(=O)N([C@@H](C)CO)C[C@@H]1C,9,0
O=C(C1CCC1)N1CC[C@H]2[C@H](CO)Nc3ccc(C#Cc4cccc(F)c4)cc3[C@H]21,-7,-4

# A second format for some results above:
Structure: C[C@H]1CN([C@@H](C)CO)C(=O)c2cc(NC(=O)Nc3ccc(F)cc3)ccc2O[C@@H]1CN(C)Cc1ccc(Oc2ccccc2)cc1
  Vaccinia inh = 4
  Vaccinia inh Venus = 0

Structure: O=S(=O)(c1ccccc1)N1CC2(C1)[C@H](c1ccccc1)[C@H](CO)N2CCC(F)(F)F
  Vaccinia inh = -8
  Vaccinia inh Venus = -6

Structure: C[C@@H]1CN([C@H](C)CO)C(=O)Cc2cc(NS(=O)(=O)c3ccccc3)ccc2O[C@@H]1CN(C)Cc1ccc(-c2ccccc2)cc1
  Vaccinia inh = -25
  Vaccinia inh Venus = -19

# (continued)
SMILES,Vaccinia inh,Vaccinia inh Venus
CCCNC(=O)N1[C@H](CO)[C@H](c2ccccc2)[C@H]1CNC(=O)c1cccc(F)c1,6,7
COc1ccc(S(=O)(=O)Nc2ccc3c(c2)C(=O)N([C@@H](C)CO)C[C@@H](C)[C@@H](CN(C)Cc2ccc(C(F)(F)F)cc2)OCCCC[C@H](C)O3)cc1,?,.
C[C@@H]1CN([C@@H](C)CO)C(=O)CCCn2nncc2CO[C@H]1CN(C)C(=O)c1ccccc1,10&-2,10&-4
C[C@@H]1CN([C@H](C)CO)C(=O)c2cc(NC(=O)NC3CCCCC3)ccc2O[C@H]1CN(C)C,13,9
CCCN(C)C[C@H]1Oc2ncc(-c3ccccc3F)cc2C(=O)N([C@@H](C)CO)C[C@@H]1C,-8,-11
CO[C@H]1CN(C)C(=O)c2ccc(NC(=O)C3CCOCC3)cc2OC[C@H](C)N(Cc2nccs2)C[C@@H]1C,7,4
C[C@H](CO)N1C[C@H](C)[C@@H](CN(C)C(=O)CN2CCOCC2)Oc2cc(Br)ccc2S1(=O)=O,7,5
CN(C[C@H]1N[C@H](CO)[C@H]1c1ccc(C2=CCCC2)cc1)S(C)(=O)=O,-11,2
COc1ccc(NC(=O)N[C@H]2C=C[C@H](CC(=O)NC3CCCCC3)O[C@@H]2CO)cc1,0,1
C[C@@H]1CN([C@@H](C)CO)C(=O)c2c(c3ccccc3n2C)-c2ccccc2CO[C@@H]1CN(C)C(=O)[C@H](C)c1ccccc1,-34,-28
C[C@H]1CCCCO[C@@H](CN(C)C(=O)Nc2ccc3c(c2)OCO3)[C@@H](C)CN([C@@H](C)CO)C(=O)c2cc(NS(=O)(=O)c3cn(C)cn3)ccc2O1,21,10
O=C(C[C@@H]1CC[C@@H]2[C@H](COC[C@H](O)CN2C(=O)c2ccccc2)O1)Nc1nccs1,11,5
Cc1ccc(S(=O)(=O)Nc2cccc3c2O[C@@H](CN(C)C(=O)NC2CCCCC2)[C@H](C)CN([C@H](C)CO)C3=O)cc1,-3,1
CO[C@@H]1CN(C)C(=O)c2cc(NC(=O)C3CCCC3)ccc2OC[C@@H](C)NC[C@H]1C,-2,-3
CCS(=O)(=O)Nc1ccc2c(c1)C(=O)N(C)[C@@H]1CC[C@@H](CC(=O)NCc3ccc(OC)cc3)O[C@H]1CO2,14,14
CN(C)C(=O)C[C@@H]1CC[C@@H]2[C@H](COC[C@H](O)CN2CC2CCOCC2)O1,8,4
C[C@@H]1CN([C@H](C)CO)C(=O)c2cc(NC(=O)Nc3cccc4ccccc34)ccc2O[C@@H]1CN(C)C(=O)Nc1ccc2c(c1)OCO2,40,28
COc1ccc(NC(=O)Nc2ccc3c(c2)C(=O)N([C@@H](C)CO)C[C@H](C)[C@H](CN(C)Cc2ccccc2)OCCCC[C@H](C)O3)cc1,?,.
COc1ccc(S(=O)(=O)Nc2ccc3c(c2)C(=O)N([C@@H](C)CO)C[C@H](C)[C@H](CN(C)C)O3)cc1,14,4
C/C=C/c1ccc([C@@H]2[C@@H](C#N)N(c3nc(CC)cs3)[C@@H]2CO)cc1,1,-3

# Rewritten as labelled records: part of the list above
compound: O=S(=O)(c1ccccc1)N1CC2(C1)[C@H](c1ccccc1)[C@H](CO)N2CCC(F)(F)F
  Vaccinia inh: -8
  Vaccinia inh Venus: -6

compound: COc1ccc(NC(=O)N[C@H]2C=C[C@H](CC(=O)NC3CCCCC3)O[C@@H]2CO)cc1
  Vaccinia inh: 0
  Vaccinia inh Venus: 1

# Later entries.
SMILES,Vaccinia inh,Vaccinia inh Venus
C[C@H](CO)N1C[C@H](C)[C@@H](CN(C)C)OCCCC[C@H](C)Oc2ccc(NS(=O)(=O)c3cn(C)cn3)cc2C1=O,8,3
CCCN1[C@@H]2Cn3c(ccc(C4=CCCCC4)c3=O)[C@H]1[C@@H](C(=O)NCCc1ccncc1)[C@@H]2CO,-7,0
COCC#Cc1ccc2c(c1)O[C@@H](CN(C)C(C)=O)[C@H](C)CN([C@H](C)CO)S2(=O)=O,25,14
O=C1CNC[C@@H]2[C@@H](c3ccc(C4=CCCC4)cc3)[C@@H](CO)N12,6,-2
Cc1ccc(S(=O)(=O)N(C)C[C@H]2Oc3ccc(NC(=O)CCC(F)(F)F)cc3C(=O)N([C@@H](C)CO)C[C@@H]2C)cc1,-8,-6
CCCC#Cc1ccc([C@H]2[C@H]3CN(C(=O)c4ccc(F)cc4)CC(=O)N3[C@H]2CO)cc1,-2,-8
COc1ccc(S(=O)(=O)Nc2ccc3c(c2)CC(=O)N([C@H](C)CO)C[C@H](C)[C@@H](CN(C)Cc2ccc(Oc4ccccc4)cc2)O3)cc1,?,.
COc1ccc(S(=O)(=O)Nc2ccc3c(c2)C(=O)N([C@H](C)CO)C[C@H](C)[C@H](CN(C)S(=O)(=O)c2cccs2)O3)cc1,0,-3
COC(=O)C[C@@H]1CC[C@@H]2[C@H](COC[C@@H](O)CN2S(=O)(=O)c2ccccc2C)O1,13,2
CO[C@H](CN(C)C(=O)c1ccc2c(c1)OCO2)[C@@H](C)CN([C@H](C)CO)S(=O)(=O)c1ccc(C)cc1,-8,1
C[C@@H]1CN([C@H](C)CO)C(=O)c2cc(NC(=O)Nc3ccc4c(c3)OCO4)ccc2O[C@@H](C)CCCCO[C@@H]1CN(C)C(=O)NC1CCCCC1,1,-4
C[C@H](NC(=O)C[C@H]1CC[C@H]2[C@@H](COc3ccc(NC(=O)C4CCOCC4)cc3C(=O)N2C)O1)c1ccccc1,11,7
C[C@H]1CN([C@@H](C)CO)S(=O)(=O)c2ccc(-c3cccnc3)cc2O[C@H]1CN(C)C(=O)CN(C)C,8,2
COc1ccc(CNC(=O)C[C@@H]2C[C@@H]3c4cc(NS(C)(=O)=O)ccc4O[C@@H]3[C@@H](CO)O2)cc1,13,12
C[C@@H]1CN([C@H](C)CO)C(=O)Cc2cc(NC(=O)Cc3ccccc3)ccc2O[C@H]1CN(C)C(=O)Nc1ccccc1,14,9
